Assay outcomes from PubChem.
Rango complex inh = qHTS Assay for Inhibitors of Rango (Ran-regulated importin-beta cargo) - Importin beta complex formation. Importin subunit beta-1 (Homo sapiens), Q14974. Rango CFP/YFP FRET sensor + importin beta, 45 min. Potency, µM (doses to about 92.2 µM), for inactives: at the top dose inhibition of complex formation. 340,000 tested, 0.031% active. AID 540263, 2011; active = rising FRET ratio curve, often small or poorly fitted; inconclusive = mostly compound fluorescence or quenching in the first reads; inactive = flat curves in all reads;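 further: potency means the concentration at half of the fitted maximal effect; 0% = DMSO wells and 100% = buffer wells lacking importin beta; nearly all actives have a fitted effect of over 15% in size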
Target sequence (Q14974 whole entry, looked up): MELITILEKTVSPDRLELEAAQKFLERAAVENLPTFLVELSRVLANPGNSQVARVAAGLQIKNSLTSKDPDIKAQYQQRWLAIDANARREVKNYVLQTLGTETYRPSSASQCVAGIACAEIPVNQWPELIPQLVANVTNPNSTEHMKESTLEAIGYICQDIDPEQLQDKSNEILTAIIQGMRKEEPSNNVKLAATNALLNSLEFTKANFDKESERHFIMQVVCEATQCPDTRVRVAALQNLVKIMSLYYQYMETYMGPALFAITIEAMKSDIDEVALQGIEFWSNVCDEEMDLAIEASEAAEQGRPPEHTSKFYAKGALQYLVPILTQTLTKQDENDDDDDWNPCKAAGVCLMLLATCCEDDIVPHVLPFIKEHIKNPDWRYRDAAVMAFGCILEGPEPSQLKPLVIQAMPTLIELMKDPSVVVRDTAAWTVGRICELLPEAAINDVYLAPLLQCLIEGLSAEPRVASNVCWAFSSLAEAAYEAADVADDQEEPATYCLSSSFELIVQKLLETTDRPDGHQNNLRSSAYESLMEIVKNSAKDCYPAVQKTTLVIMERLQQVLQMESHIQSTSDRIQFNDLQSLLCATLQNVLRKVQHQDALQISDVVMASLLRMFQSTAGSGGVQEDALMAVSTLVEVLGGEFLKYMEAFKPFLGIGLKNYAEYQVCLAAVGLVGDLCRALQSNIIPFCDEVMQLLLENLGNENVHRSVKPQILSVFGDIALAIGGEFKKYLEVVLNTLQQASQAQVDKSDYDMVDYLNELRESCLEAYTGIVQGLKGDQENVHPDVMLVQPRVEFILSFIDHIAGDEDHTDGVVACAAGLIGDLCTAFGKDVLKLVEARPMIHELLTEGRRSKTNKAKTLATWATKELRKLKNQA
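FRET biosensor (snurportin 1 IBB flanked by EYFP and cerulean), 50 nM, with compound 5 min, then 0.125 microM importin beta in PBS, 1 mM DTT, 0.02% Tween-20, 0.1% BSA. CFP/YFP ratio read after 45 min at room temperature; pre-read flags interference.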
Rango release inh = qHTS Assay for Inhibitors of RanGTP induced Rango (Ran-regulated importin-beta cargo) - Importin beta complex dissociation; Potency, µM (series often up to 46.1 µM), for the others: at the highest dose activity change, negative = inhibition; 340,000 tested, 0.071% active; Biochemical FRET Rango-importin beta, RanGTP-induced dissociation; active means falling FRET ratio curve, often poorly fitted, with flat reads before Ran was added; inconclusive means other falling curves, or compound fluorescence or quenching; inactive means flat or rising ratio curve;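 further: potency means the concentration at half of the fitted maximal effect; % of control where 0% means no effect; nearly all actives have a fitted effect of over 45% in size; -100% = wells without RanGTP and RCC1; the record marks most hits as doubtful in a second field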
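Quantitative HTS using a FRET biosensor: 0.1 uM Rango, 0.25 uM importin beta, 0.6 uM Ran, 2 mM GTP, 0.2 uM RCC1 final, PBS with DTT, Tween-20 and BSA. Post-read taken 45 min after Ran addition.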
GLA inh pH 4.5 = qHTS Assay for Inhibitors of Human alpha-Galactosidase at pH 4.5; Alpha-galactosidase A (Homo sapiens), P06280; purified enzyme, 4-MU-alpha-Gal fluorescence, pH 4.5; activity change, negative = inhibition, % at 105 µM; 230,000 tested, under 10 active; inconclusive = small, poorly fitted or top-dose-only inhibition, or a rising curve; inactive = flat fitted curve, though single readings scatter; no compound was filed as active;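 further: 0% = full activity with enzyme and -100% = basal without enzyme; dose as in the result columns while the protocol names 77 µM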
miR-21 FLuc = qHTS Assay for Modulators of miRNAs and/orActivators of miR-21. HeLa miR-21 FLuc reporter, luciferase, 48 h. Potency, µM (doses to about 38.3 µM), inactives show top-dose reporter change, positive = more light. 340,000 tested, under 10 active. AID 2288, 2010; active = well fitted rising curve with a large enough effect; inconclusive = small, poorly fitted or top-dose-only effect; inactive = no such curve, though single readings can be large or run the other way;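 further: % of control where 0% means no effect; miR-21 action dims this reporter so a rising signal means less miR-21 action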
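Compounds were titrated across several concentrations (up to approximately 40 uM) and incubated 48 hours with HeLa miR-21-FLuc reporter cells (miR-21 target sequence downstream of FLuc, endogenous miR-21). Readout was firefly luciferase luminescence after lytic detection reagent.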
Numbers without * were called inactive; ? = inconclusive; · = not tested or not shown.

Preview (two entries):
Rango complex inh | Rango release inh | GLA inh pH 4.5 | miR-21 FLuc | Compound
-4.2% | 3.6% | 6.6 | -15.2% | COc1ccc2c(c1)SC1=NCCS(=O)(=O)N12
9.7% | -2.4% | -7.0 | -5.6% | COc1ccc(NC(=O)C2CCCN2C(=O)Oc2ccccc2)cc1 (centres undefined)

The listing, previewed entries included:
Rango complex inh | Rango release inh | GLA inh pH 4.5 | miR-21 FLuc | Compound
-4.2% | 3.6% | 6.6 | -15.2% | COc1ccc2c(c1)SC1=NCCS(=O)(=O)N12
9.7% | -2.4% | -7.0 | -5.6% | COc1ccc(NC(=O)C2CCCN2C(=O)Oc2ccccc2)cc1 (centres undefined)
-1.0% | -1.9% | · | · | O=S(=O)(c1ccc2c(c1)OCCO2)N1C[C@@H]2C[C@H]1CN2S(=O)(=O)c1c(F)cccc1F
0.3% | 1.8% | 3.1 | 14.8% | COc1ccc(-c2cn[nH]c2C)cc1
-2.2% | -10.7% | -15.0 | ? | COc1ccc(-c2ccc(OC)c([C@H]3[C@@H]4C=CCC[C@@]4(C)C(=O)N3Cc3ccccc3)c2)cc1OC
0.4% | -2.3% | 0.8 | -3.2% | Nn1c(Nc2ccc(Cl)cc2)nncc1=O
-0.2% | 1.8% | -15.0 | -1.3% | COc1cc(/C=N/NC(=O)/C(=C\c2ccc3c(c2)OCO3)NC(=O)c2ccccc2)ccc1O
-3.3% | 6.0% | 3.8 | -0.7% | COC(=O)c1ccccc1NC(=O)N1CCN(c2ccc(OC)cc2)CC1
0.9% | -4.8% | · | -0.2% | Cc1ccc(C(C)NC(=O)c2ccncc2)cc1C (centres undefined)
-0.5% | 13.1% | · | · | Cc1c(C(=O)NC(=S)Nc2ccc(NC(=O)c3cccs3)cc2)cccc1[N+](=O)[O-]
3.5% | -6.2% | 3.1 | -1.0% | O=c1cc[nH]c2ccc(Cl)cc12
5.7% | 12.2% | · | · | COc1ccc(C(CNC(=O)CSc2ccc(Br)cc2C)N2CCOCC2)cc1 (centres undefined)
0.7% | -4.8% | -12.9 | -4.8% | CN(C)S(=O)(=O)c1ccc(C(=O)N2CCN=C2SCc2ccccc2)cc1
0.8% | 0.4% | · | · | Cc1ccnc(NC(=O)c2ccc3c(c2)NC(=O)C(C)S3)c1 (centres undefined)
0.8% | 5.9% | · | · | CCOc1ccc(NC(=O)COc2ccc3c(c2)CCC3)cc1OC
-0.1% | 19.8% | · | -5.6% | Cc1ccc(C)c(N2CCN(C(=O)c3ccc(NC4=NC5CS(=O)(=O)CC5S4)cc3)CC2)c1 (centres undefined)
-2.8% | 1.0% | · | ? | CN(C)c1cc[n+](CC(=O)Nc2ccc(Cl)cc2)cc1
0.0% | -12.5% | -14.8 | -0.4% | CCOC(=O)c1c(NC(=O)Cn2nc(C(F)F)cc2C(F)F)sc(C)c1C
? | ? | -4.4 | -65.8% | CN(C)c1ccc(N=Cc2nc(-c3ccccc3)oc2OC(=O)c2cccc(Br)c2)cc1
-6.1% | -16.8% | 0.9 | -0.5% | CN(C)C(CNC(=S)Nc1cccc(Cl)c1)c1ccccc1 (centres undefined)
-0.3% | 2.3% | · | -3.9% | CCOc1ccc(CNS(=O)(=O)c2c(C(=O)N3CCCC3)c(C)n(C)c2C)cc1OC
1.8% | -16.8% | · | · | CN(CC(=O)Nc1cccc(F)c1)C(=O)c1ccccc1OCCOc1ccccc1
-0.2% | -5.3% | 1.3 | -15.4% | O=C(c1cccs1)N1CCN(c2ncc(Br)cn2)CC1
-1.8% | -5.9% | 2.2 | -1.6% | Cc1ccc(-n2c(C)nc3c(cnn3-c3ccc(F)cc3)c2=O)cc1C
3.7% | 5.3% | -0.1 | -5.3% | COc1ccc(N2C(=O)C3C(C2=O)C2C=CC3C23CC3)c(OC)c1 (centres undefined)
-0.5% | 10.6% | -10.7 | -5.1% | Cc1c(C(=O)NCCSCc2c(Cl)cccc2Cl)cccc1[N+](=O)[O-]
-2.1% | -11.4% | -6.3 | -3.4% | O=C(NCc1cccnc1)C1CC(c2ccc(F)cc2)=NO1 (centres undefined)
-0.1% | -7.4% | 0.5 | -24.7% | COc1ccc(OC)c(C2=NOC(C(=O)N3CCCc4ccccc43)C2)c1 (centres undefined)
1.1% | -2.2% | 2.8 | 0.3% | CCc1cccc(C)c1NC(=O)N(C)C1CCCCC1
1.1% | 9.5% | -10.1 | -12.5% | COc1cccc(NC(=O)CCc2nc(-c3ccccc3F)no2)c1
-0.5% | 22.5% | -1.5 | -12.5% | Cc1cc2nn(-c3cccc4ccccc34)nc2cc1NC(=O)c1cccs1
? | -5.4% | -6.9 | -9.2% | CC1(C)OC1COc1c2ccoc2cc2oc(=O)ccc12 (centres undefined)
1.1% | 0.3% | 2.8 | -2.6% | CCOc1ccc(C2=NNC(c3cccnc3)=Nc3ccc(OC)cc32)cc1
-3.9% | -16.2% | -2.0 | 15.1% | CCOC(=O)C(C)Oc1cccc2c(=O)n(CC(=O)NCc3ccco3)ccc12 (centres undefined)
? | ? | 2.7 | 14.0% | O=C(NNc1c2ccccc2nc2ccccc12)c1cccc(O)c1
-1.3% | -9.5% | -12.0 | -30.9% | COc1ccc(CC(=O)Nc2ccc(-c3nc4cc(C)ccc4o3)c(O)c2)cc1OC
-4.3% | -0.1% | -9.5 | 0.7% | O=S(=O)(N1CCCCC1)N1CCN(c2ccccc2F)CC1
2.7% | 43.6% | 9.8 | 0.3% | OC1CCNC(=S)N1c1ccccc1 (centres undefined)
-0.2% | -0.9% | · | -4.9% | CN(Cc1ccc(Br)cc1)CC(O)COc1cccc(Br)c1 (centres undefined)
9.5% | -27.1% | -12.9 | -5.4% | Cn1c(-c2cnn(-c3ccccc3)c2-n2cccc2)n[nH]c1=S
-3.6% | -1.1% | 2.4 | -2.5% | O=C(NCCCN1CCOCC1)c1csc2c1CCCC2
-0.5% | -19.4% | -1.5 | 3.8% | Cn1c(=O)c2[nH]c(N=NNc3ccccc3F)nc2n(C)c1=O
1.3% | -9.9% | 3.3 | -17.9% | COc1ccc(NC(=S)NCCC2=CCCCC2)cc1OC
0.1% | 13.3% | · | · | C=CCC[C@H](Cc1ccc(F)cc1)C(=O)OC[C@H](Cc1c[nH]c2ccccc12)NC(=O)[C@@H](CC=C)CC(=O)N(CCO)Cc1ccccc1
2.0% | 28.7% | · | 2.1% | O=C(CCN1C(=O)/C(=C/c2cccs2)SC1=S)Nc1ccccc1O
0.6% | 21.2% | · | -0.6% | Cc1cc(C)cc(NC(=S)N2CCC(NC(=O)C3CCCCC3)CC2)c1
? | -2.0% | · | 6.6% | COc1ccc(OC)c(C2C(C(=O)c3ccco3)=C(O)C(=O)N2CC2CCCO2)c1 (centres undefined)
-8.1% | -17.7% | · | -6.7% | O=C(c1ccc2c(c1)OCCO2)C1CCN(C(=O)Nc2ccc(F)cc2)CC1
? | ? | · | -6.0% | COCCn1c(=N)c(S(=O)(=O)c2ccc(F)cc2)cc2c(=O)n3ccccc3nc21
-2.0% | -21.6% | -20.0 | -19.9% | Cn1c(=O)[nH]c(=O)c2c1nc(N1CCCCC1)n2CCCSc1nnnn1-c1ccccc1
0.6% | -7.8% | -6.7 | -6.9% | Cc1ccccc1OCC(=O)Nc1ccc(N2CCN(S(C)(=O)=O)CC2)cc1
? | -19.9% | 8.5 | -5.8% | CCC(C)NCCOCCOc1ccc(C)cc1Br (centres undefined)
0.3% | -11.5% | · | 1.6% | O=C(NC1CCCC1)C(c1ccc(F)cc1)N(C(=O)c1csnn1)c1ccccc1 (centres undefined)
-0.4% | -4.5% | · | -0.4% | O=C(CCN1C(=O)c2ccccc2S1(=O)=O)Nc1ccc(Cl)cc1
1.4% | 5.2% | -2.0 | -17.9% | CCOC(=O)C1CCN(C(=S)Nc2ccc(CC)cc2)CC1
-0.4% | 3.4% | -1.9 | -27.8% | O=C(CSc1ccc(-c2ccc(F)cc2)nn1)N1CCOCC1
0.6% | ? | · | -1.7% | O=C(Nc1ccnn1C1CCN(C(=O)c2ccc(Cl)cc2)CC1)C1CC1
0.3% | 0.1% | · | 4.5% | CCCc1nc(SCC(=O)Nc2nnc(CC)s2)c2c(=O)n(C)c(=O)n(C)c2n1
4.0% | 14.7% | · | -1.3% | O=C(NCc1cccc(C(F)(F)F)c1)C1CCCN(c2cnccn2)C1 (centres undefined)
-6.2% | -5.8% | 3.6 | -29.0% | Fc1ccc(CSc2nc3ncccc3[nH]2)cc1

Following part.
Rango complex inh | Rango release inh | GLA inh pH 4.5 | miR-21 FLuc | Compound
-3.0% | 0.4% | · | 0.3% | O=C(c1ccc(Cl)cc1)N1CCCC(C(=O)N2CCCCC2)C1 (centres undefined)
3.6% | 1.3% | -2.0 | -1.1% | COc1ccc(C)cc1NC(=O)C(OC(=O)c1cccc(S(=O)(=O)N(C)c2ccccc2)c1)c1ccccc1 (centres undefined)
-0.2% | 0.3% | · | 0.5% | COc1ccc(OC)c(NC(=O)CN2C(=O)COc3ccc(C)cc32)c1
-2.6% | -3.1% | 7.0 | -43.3% | Cn1cc(/C=N\NC(=O)c2cccs2)c2ccccc21
-3.4% | -1.2% | 4.9 | -3.7% | Cc1n[nH]c(=O)nc1NCCN(C)C
-1.6% | -8.9% | -5.3 | -4.7% | COc1ccc(C(=O)NNC(=O)CSc2nnc(COc3ccccc3OC)n2C)cc1
2.5% | ? | -6.3 | 0.0% | Cn1c(C(=O)NCCCN2CCCCC2)cc2sccc21
5.1% | 2.9% | 3.8 | -1.5% | CC1(C)OC(=O)N(CC(=O)Nc2cccc(C(F)(F)F)c2)C1(C)O (centres undefined)
-5.4% | ? | · | 0.1% | CCN1CCN(C(=O)c2ccc(CNS(=O)(=O)c3cccc(OC)c3)cc2)CC1
0.2% | -9.9% | 4.0 | 3.1% | COc1cc(OC)nc(Oc2ccc(NC(C)=O)cc2)n1
? | ? | 23.6 | -5.0% | Cc1cccc2cc(C#N)c(NCCNC(=S)NCCCN3CCOCC3)nc12
-0.1% | -13.6% | 0.5 | 0.4% | CC(C)N1C(=O)NC2(c3ccccc3)N(C)C(=O)N(C)C12c1ccccc1 (centres undefined)
? | ? | -0.7 | 0.0% | CN(C)c1ccc(C2CC(c3cccc(NS(C)(=O)=O)c3)=NN2C(=O)c2ccccc2)cc1 (centres undefined)
-4.2% | 1.3% | · | · | Cc1ccc(C(CNC(=O)c2ccco2)N2CCN(C)CC2)cc1 (centres undefined)
0.6% | -5.2% | -4.4 | 3.1% | CCSC1=NCCN1S(=O)(=O)c1ccc(Cl)cc1
-0.9% | 13.9% | · | 3.0% | O=C(NC(c1cccnc1)C(F)(F)F)c1cc(COc2ccc3c(c2)CCCC3)on1 (centres undefined)
5.5% | 7.1% | 4.4 | 5.4% | Cn1[nH]c(C(F)(F)F)c(C=Nc2ccc(Cl)cc2)c1=O
4.4% | -6.3% | -3.5 | 1.8% | CCCCC(=O)NNC(=S)NC(=O)c1cccc([N+](=O)[O-])c1
2.4% | -1.3% | 0.7 | -3.8% | CC(C)(C)c1cn(-c2ccc(Cl)cc2)c(=S)[nH]1
0.6% | 25.2% | 5.7 | -10.4% | CN(C)CCNC(=S)Nc1ccc(Cl)cc1
-0.1% | 0.4% | 10.0 | -14.8% | O/N=C(\c1ccccn1)C1CC1c1ccccc1 (centres undefined)
3.0% | ? | · | 0.5% | COCC(=O)N(Cc1cc2cc(C)ccc2[nH]c1=O)c1cccc(C)c1C
-0.6% | 2.5% | -14.3 | 14.5% | CCN(CC)CCn1c2ccccc2c2cnc(N=CN(C)C)c(C#N)c21
9.0% | 1.5% | · | · | CC(C)(OC(=O)c1ccc(C#N)cc1)c1cc2ccccc2c(=O)o1
0.6% | 15.4% | 5.8 | -0.2% | O=C(c1ccco1)N1CCN(c2cc(=O)n(-c3ccc(Cl)cc3)c(=O)[nH]2)CC1
-1.6% | -7.6% | · | -12.4% | CC(NC(=O)CN(C)Cc1cccc(Cl)c1)c1ccccc1 (centres undefined)
? | ? | -13.3 | -2.7% | CCOC(=O)C1=C(C)N=c2s/c(=C\c3ccc(OCC(=O)O)cc3)c(=O)n2C1c1ccc(OC(C)C)cc1 (centres undefined)

These rows are one share of the data. The share of hits here may be higher or lower than overall.
